MITF inhib = MITF inhibition; TRPM1 promoter luciferase, luminescence, 24 h; inhibition, % (test concentration not listed); hit rate 0.28% among 37,000; AID 2240;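 active = most replicates at 85% or more, or half of them and the mean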;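 note: human melanocyte line stably carrying TRPM1 promoter luciferase reporter; 0% = vehicle wells and 100% = a positive control; the first replicate is given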
PD-1 reversal = activators reversing PD-1 mediated T-cell inhibition. 29,000 tested, under 10 active. activation, % (test concentration not listed). primary human CD4 T cells, PD-L1 beads, CellTiter-Glo 96 h;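 active = replicate mean of 50% or more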;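 note: 0% = median vehicle wells and 100% = positive control; 100 nL library stock added to about 50 µL; numbers are from one replicate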
YB-1 expr inh = YB-1 expression inhibition | U2OS, qRT-PCR YB-1 vs CDIP delta delta Cp, 16 h; stronger effect = higher value; zero = DMSO, each unit about twofold | delta delta Cp (YB-1 minus CDIP) (concentration not given with the values) | hit rate 0.37% among 30,000 | AID 434959;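 active = delta delta Cp rounded down to an integer at or above 3, about 3 SD of DMSO wells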;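 note: higher means less YB-1 transcript or more CDIP transcript relative to DMSO; stock transfer was 100 nL into about 100 µL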
Shh pathway inh = Sonic Hedgehog pathway inhibition. Shh-LIGHT2 Gli-luciferase reporter, 30 h. inhibition, % (concentration not given with the values). hit rate 2.1% among 22,000. AID 2313;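 active = replicate mean of 65% or more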;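 note: pathway switched on by Shh-conditioned medium diluted 1 in 25 in low serum; 100 nL library stock added to about 40 µL; 0% = median of neutral wells and 100% = positive control level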
* marks the source's active call; other numbers are inactive results; . = not tested or not shown.

SMILES | MITF inhib | PD-1 reversal | YB-1 expr inh | Shh pathway inh
CCCOc1ccc(C2C3=C(CCCC3=O)OC3=C2C(=O)CCC3)cc1OCC | 15 | -0.2 | -0.14 | 14
CNC[C@@H]1Oc2c(NC(=O)Nc3ccc4c(c3)OCO4)cccc2C(=O)N([C@@H](C)CO)C[C@@H]1C | -1 | . | -0.27 | 3
C[C@H](CO)N1C[C@H](C)[C@H](CN(C)Cc2ccc3c(c2)OCO3)Oc2ccc(NC(=O)Cc3ccccc3)cc2CC1=O | -2 | 0.0 | -0.13 | 21
C[C@@H]1CN([C@H](C)CO)C(=O)c2cc(NC(=O)CCCCCC(=O)Nc3ccccc3N)ccc2O[C@H]1CN(C)S(=O)(=O)c1ccc(F)cc1 | -1 | 0.8 | 0.61 | .
CC(C)(C)c1ncc(S(=O)(=O)c2ccc(C(F)(F)F)cn2)c(N)n1 | -4 | -0.3 | -0.76 | -2
COc1ccc(NC(=O)Nc2ccc3c(c2)C(=O)N([C@H](C)CO)C[C@H](C)[C@@H](CN(C)Cc2ccc(C(F)(F)F)cc2)OCCCC[C@@H](C)O3)cc1 | 16 | . | 0.2 | 33
Cc1noc(C)c1S(=O)(=O)Nc1ccc2c(c1)C(=O)N([C@H](C)CO)C[C@@H](C)[C@H](CN(C)CC1CC1)O2 | 5 | 0.9 | -0.096 | -19
COc1ccc(NC(=O)Nc2ccc3c(c2)C(=O)N([C@@H](C)CO)C[C@H](C)[C@@H](CN(C)C(=O)NC(C)C)O3)cc1 | 5 | 0.4 | 0.3 | -4
COc1ccc(NC(=O)Nc2ccc3c(c2)C(=O)N([C@H](C)CO)C[C@H](C)[C@H](CN(C)S(=O)(=O)c2ccc(C)cc2)O3)cc1 | -29 | -0.3 | -0.064 | 25
C[C@@H]1CN([C@@H](C)CO)C(=O)c2cccc(NS(=O)(=O)c3cccs3)c2O[C@@H]1CN(C)Cc1ccc2c(c1)OCO2 | -2 | 1.2 | -0.33 | -9
C[C@@H]1CN([C@@H](C)CO)C(=O)c2cc(NC(=O)C3CC3)ccc2O[C@@H]1CN(C)Cc1ccc2c(c1)OCO2 | 4 | 0.0 | 0.11 | -10
C[C@H]1CN([C@@H](C)CO)C(=O)Cc2cc(NC(=O)CCC(F)(F)F)ccc2O[C@@H]1CN(C)S(=O)(=O)c1cn(C)cn1 | -7 | 0.8 | 0.19 | -8

Part of the list above, as tab-separated lines:
mol	MITF inhib	PD-1 reversal	YB-1 expr inh	Shh pathway inh
CNC[C@@H]1Oc2c(NC(=O)Nc3ccc4c(c3)OCO4)cccc2C(=O)N([C@@H](C)CO)C[C@@H]1C	-1	.	-0.27	3
Cc1noc(C)c1S(=O)(=O)Nc1ccc2c(c1)C(=O)N([C@H](C)CO)C[C@@H](C)[C@H](CN(C)CC1CC1)O2	5	0.9	-0.096	-19
COc1ccc(NC(=O)Nc2ccc3c(c2)C(=O)N([C@H](C)CO)C[C@H](C)[C@@H](CN(C)Cc2ccc(C(F)(F)F)cc2)OCCCC[C@@H](C)O3)cc1	16	.	0.2	33
C[C@@H]1CN([C@@H](C)CO)C(=O)c2cccc(NS(=O)(=O)c3cccs3)c2O[C@@H]1CN(C)Cc1ccc2c(c1)OCO2	-2	1.2	-0.33	-9

Going on with the list.
SMILES | MITF inhib | PD-1 reversal | YB-1 expr inh | Shh pathway inh
COC(=O)C1=C(C)N(C)C(=O)NC1c1ccc(OC)c(Br)c1 (stereo not drawn) | 1 | 2.7 | . | 31
C[C@H](CO)N1C[C@H](C)[C@H](CN(C)C(=O)NC2CCCCC2)Oc2c(NC(=O)Nc3ccc(C(F)(F)F)cc3)cccc2C1=O | -1 | -5.3 | -0.63 | -3
C[C@@H]1CN([C@@H](C)CO)C(=O)c2cc(NC(=O)CCN3CCOCC3)ccc2O[C@H]1CN(C)S(=O)(=O)c1ccccc1 | 1 | . | -0.42 | -85
CC(Oc1ccc(Cl)cc1Cl)C(=O)Nc1ccc2oc(-c3ccncc3)nc2c1 (stereo not drawn) | 51 | -2.0 | . | .
C[C@@H]1CCCCO[C@@H](CN(C)C)[C@@H](C)CN([C@H](C)CO)C(=O)c2cc(NS(=O)(=O)c3cccs3)ccc2O1 | -10 | 0.9 | 0.016 | .
C[C@@H]1CN([C@@H](C)CO)C(=O)Cc2cc(NS(C)(=O)=O)ccc2O[C@@H]1CN(C)C(=O)Nc1ccc(C(F)(F)F)cc1 | -5 | . | 0.061 | -3
COc1ccc(S(=O)(=O)N(C)C[C@H]2Oc3ccc(NC(=O)CCN4CCOCC4)cc3C(=O)N([C@H](C)CO)C[C@@H]2C)cc1 | 1 | -0.3 | -0.067 | -25
C[C@@H]1CN([C@@H](C)CO)C(=O)c2cccc(NS(=O)(=O)c3ccc(Cl)cc3)c2O[C@@H]1CN(C)Cc1ccccc1 | -2 | -1.9 | -0.096 | 16
C[C@@H]1CN([C@@H](C)CO)C(=O)c2cccc(NC(=O)Nc3ccc(C(F)(F)F)cc3)c2O[C@@H]1CN(C)Cc1ccc(-c2ccccc2)cc1 | 8 | . | -0.27 | .
COc1ccc(S(=O)(=O)N(C)C[C@H]2Oc3ccc(NC(=O)CCCCCC(=O)Nc4ccccc4N)cc3C(=O)N([C@@H](C)CO)C[C@@H]2C)cc1 | 3 | 2.7 | -0.18 | .
COc1ccc(NC(=O)Nc2ccc3c(c2)C(=O)N([C@@H](C)CO)C[C@@H](C)[C@@H](CN(C)S(=O)(=O)c2cn(C)cn2)O3)cc1 | -3 | 1.8 | 1.3 | -39
O=C(NCc1ccccn1)c1cccnc1SCCS(=O)(=O)c1ccc(C(F)(F)F)cn1 | -14 | -13 | 0.03 | 13
C[C@@H]1CN([C@@H](C)CO)C(=O)c2cc(NC(=O)CCC(F)(F)F)ccc2O[C@H]1CN(C)S(=O)(=O)c1ccccc1 | 0 | . | 0.05 | -68
C[C@@H]1CN([C@H](C)CO)C(=O)c2cc(NC(=O)Nc3ccc(F)cc3)ccc2O[C@H]1CN(C)Cc1ccc(-c2ccccc2)cc1 | 5 | -11 | 0.22 | .
COc1ccc2cc(C3CC(c4ccc(OC)c(OC)c4)=NN3C(=O)c3ccco3)c(Cl)nc2c1 (stereo not drawn) | -1 | -1.1 | 0.34 | -7
C/C=C(\C)CC(/C=C(\C)C(O)C(C)/C=C(\C)C(O)C(C)/C=C/C(O)C/C=C/C(O)C(O)C(=O)O)C(=O)O (stereo not drawn) | -1 | -0.5 | 1.2 | -23
Clc1ccc(Nc2nnc3c4ccccc4c4ccccc4c3n2)cc1 | 11 | -1.0 | -0.28 | 7
Cc1cccc(-n2c(N)cc(=O)nc2SCC(=O)Nc2ccccc2C#N)c1 | 5 | 0.7 | . | .
Cc1noc(C)c1NC(=O)Nc1ccc2c(c1)C(=O)N([C@@H](C)CO)C[C@@H](C)[C@H](CN(C)Cc1ccc(C(=O)Nc3ccccc3N)cc1)O2 | -12 | 1.3 | 0.48 | .
Cc1noc(C)c1NC(=O)Nc1ccc2c(c1)C(=O)N([C@H](C)CO)C[C@@H](C)[C@@H](CN(C)C)O2 | -7 | -0.8 | 0.43 | .
CC1(C)C(=O)[C@@H]2C[C@@]3(O)C4=CC(=O)O[C@@H](c5ccoc5)[C@]4(C)CCC3[C@@](C)(C2=O)[C@H]1CC(=O)O (stereo partly drawn) | 17 | . | -0.094 | -18
Cc1c(/C=C2\SC(c3ccccc3)=NC2=O)c(=O)n(-c2ccccc2)n1C | 4 | 0.0 | 0.17 | -25
Cc1noc(C)c1S(=O)(=O)Nc1ccc2c(c1)CC(=O)N([C@H](C)CO)C[C@@H](C)[C@@H](CN(C)S(=O)(=O)c1cn(C)cn1)O2 | -6 | 1.0 | 0.12 | -14
COc1cc(OC)c2c(c1O)OC(c1ccccc1)CC2=O (stereo not drawn) | 0 | 0.6 | 0.6 | 14
C[C@@H]1CN([C@@H](C)CO)C(=O)c2cccc(N(C)C)c2O[C@H]1CN(C)Cc1ccccc1 | 0 | -0.7 | 14* | -52
C[C@H](CO)N1C[C@H](C)[C@@H](CN(C)Cc2ccc(C(F)(F)F)cc2)Oc2c(NC(=O)c3nc4ccccc4s3)cccc2C1=O | 12 | -3.4 | -0.12 | 14
C[C@H]1CN([C@@H](C)CO)C(=O)c2cccc(NC(=O)Nc3ccc(C(F)(F)F)cc3)c2O[C@@H]1CN(C)S(=O)(=O)c1ccc(Cl)cc1 | -7 | 1.0 | 0.23 | -14
Cc1noc(C)c1NC(=O)Nc1ccc2c(c1)CC(=O)N([C@@H](C)CO)C[C@H](C)[C@@H](CN(C)Cc1ccc3c(c1)OCO3)O2 | 8 | 0.4 | -0.71 | 42
C[C@@H]1CN([C@@H](C)CO)C(=O)c2cc(NC(=O)NC3CCCCC3)ccc2O[C@@H]1CN(C)Cc1ccc(C(=O)Nc2ccccc2N)cc1 | 6 | -3.0 | -0.44 | .
C[C@@H]1CN([C@H](C)CO)C(=O)c2cccc(NC(=O)C3CCOCC3)c2O[C@@H]1CN(C)Cc1ccc(Oc2ccccc2)cc1 | -15 | -0.5 | -0.47 | 19
Cc1cc(C(=O)Nc2cccc3c2O[C@@H](CN(C)Cc2ccc(C(=O)O)cc2)[C@@H](C)CN([C@@H](C)CO)C3=O)n(C)n1 | 1 | 3.2 | 0.49 | -3
Cc1noc(C)c1NC(=O)N(C)C[C@@H]1Oc2ccc(NC(=O)C3CCCCC3)cc2C(=O)N([C@@H](C)CO)C[C@@H]1C | 1 | 0.0 | -0.023 | -13
C[C@@H]1CN([C@H](C)CO)C(=O)Cc2cc(NS(=O)(=O)c3ccccc3)ccc2O[C@H]1CN(C)Cc1ccc(-c2ccccc2)cc1 | 6 | -1.2 | -0.027 | -15
Cc1ccc(S(=O)(=O)N(CC(=O)O)c2ccc(Br)cc2)cc1 | -13 | 1.5 | . | .
COc1ccc(NC(=O)CN(c2ccc(Br)c(C)c2)S(C)(=O)=O)cc1OC | 5 | 0.9 | . | .
C[C@@H]1CN([C@H](C)CO)C(=O)Cc2cc(NC(=O)Nc3ccc(C(F)(F)F)cc3)ccc2O[C@@H]1CN(C)C(=O)Nc1ccc(F)cc1 | 9 | 1.2 | -0.47 | .
CCCCCC(=O)Cc1cc(O)c(O)c2c1C(=O)Oc1cc(O)c(C(=O)O)c(CCCCC)c1O2 | 29 | -9.8 | 0.55 | 75*
C[C@H](CO)N1C[C@H](C)[C@H](CN(C)S(=O)(=O)c2cccs2)Oc2ccc(NS(=O)(=O)c3cccs3)cc2CC1=O | 4 | 0.1 | 0.29 | 10
COc1cc(OC)c(OC)cc1CN1CCN(Cc2ccccn2)CC1 | -15 | 0.9 | . | .
O=S(=O)(/N=C1\SCCN1S(=O)(=O)c1ccc(Cl)cc1)c1ccc(Cl)cc1 | -6 | -0.4 | 0.44 | .
C[C@@H]1CN([C@H](C)CO)C(=O)Cc2cc(NC(=O)Cn3cnnn3)ccc2O[C@@H]1CN(C)Cc1ccc(Cl)c(Cl)c1 | -17 | 1.3 | -0.32 | -2
C[C@H]1CN([C@@H](C)CO)C(=O)Cc2cc(NS(=O)(=O)c3cccs3)ccc2O[C@H]1CN(C)Cc1ccc(Cl)c(Cl)c1 | -3 | 1.2 | -0.011 | 26
C[C@H]1CN([C@@H](C)CO)C(=O)Cc2cc(NC(=O)Nc3ccc(F)cc3)ccc2O[C@@H]1CN(C)S(=O)(=O)c1cn(C)cn1 | -7 | 3.0 | 0.11 | 9
C[C@H]1CN([C@@H](C)CO)C(=O)Cc2cc(NC(=O)CCCN(C)C)ccc2O[C@@H]1CN(C)Cc1ccc(Oc2ccccc2)cc1 | -5 | . | -0.89 | 47
C[C@@H]1CN([C@H](C)CO)C(=O)c2cccc(NS(=O)(=O)c3ccc(F)cc3)c2O[C@H]1CN(C)Cc1ccc(C(F)(F)F)cc1 | -2 | . | 0.021 | -30
C[C@@H]1CN([C@H](C)CO)C(=O)c2cc(NC(=O)C3CC3)ccc2O[C@@H]1CN(C)S(C)(=O)=O | 10 | 2.2 | 0.3 | .
C[C@@H]1CN([C@H](C)CO)C(=O)Cc2cc(NC(=O)Nc3ccc(F)cc3)ccc2O[C@@H]1CN(C)Cc1ccc(C(=O)O)cc1 | -6 | -0.5 | -0.094 | -16
Cc1noc(C)c1S(=O)(=O)Nc1ccc2c(c1)CC(=O)N([C@@H](C)CO)C[C@H](C)[C@@H](CN(C)Cc1ccc(Oc3ccccc3)cc1)O2 | -3 | -0.9 | -0.46 | 22
C[C@H](CO)N1C[C@H](C)[C@@H](CN(C)S(=O)(=O)c2ccc(F)cc2)Oc2ccc(NC(=O)Cn3cnnn3)cc2C1=O | 4 | 1.3 | 0.011 | -38
CCOc1ccc(C(=O)CC(N)C(=O)O)cc1 (stereo not drawn) | 8 | 2.1 | -0.21 | 3
C[C@H](CO)N1C[C@H](C)[C@H](CN(C)C(=O)Nc2ccc3c(c2)OCO3)Oc2ccc(NC(=O)CCC(F)(F)F)cc2CC1=O | 0 | 1.2 | -0.13 | -14

Molecules shown so far with an aryl thioether with sulfur outside any ring, in the order listed:
SMILES | MITF inhib | PD-1 reversal | YB-1 expr inh | Shh pathway inh
O=C(NCc1ccccn1)c1cccnc1SCCS(=O)(=O)c1ccc(C(F)(F)F)cn1 | -14 | -13 | 0.03 | 13
Cc1cccc(-n2c(N)cc(=O)nc2SCC(=O)Nc2ccccc2C#N)c1 | 5 | 0.7 | . | .

Screens: PubChem, Broad Institute

An excerpt (hit frequency here may not be typical).
